RE007 growth inh – less growth of the S. pombe RE007 Vpr strain; S. pombe RE007 Vpr strain, BacTiter-Glo ATP luminescence, 24 h; control for the full effect not named in the record; actives 0.21% (n = 360,000); AID 651644; Potency, µM (series often up to 92.2 µM), for inactives: at the highest dose activity change, negative = less growth; active = well fitted falling curve with a large enough effect; inconclusive = small, poorly fitted or top-dose-only effect; inactive = no such curve, though single readings can be large or run the other way;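 further: on the % scale 0 is the no-effect control and ±100 the full control effect; nearly all actives have a fitted effect of over 50% in size; the assay follows cell death caused by Vpr and the record does not say whether a fall means rescue or toxicity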
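Fission yeast strain RE007, carrying one chromosomally integrated HIV-1 vpr copy, was seeded at OD 0.01 in PMG+AL medium with 23 nL pinned compound. After 24 h at 30 °C and 99% humidity, viability was read by BacTiter-Glo luminescence.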
Cruzain inh Det – cruzain (T. cruzi) inhibition with detergent. AID 1478. Potency, µM, for inactives: max response, negative = inhibition, most hits filed as inhibitors. purified cruzain, Z-FR-AMC fluorescence, 0.01% Triton. P25779. actives 0.43% (n = 200,000);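 further: plate controls were neutral wells for no effect and buffer without enzyme for full effect; nearly all actives have a fitted effect of over 40% in size; top concentration of the series not given in the record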
Target sequence (P25779 123-467 limits assumed): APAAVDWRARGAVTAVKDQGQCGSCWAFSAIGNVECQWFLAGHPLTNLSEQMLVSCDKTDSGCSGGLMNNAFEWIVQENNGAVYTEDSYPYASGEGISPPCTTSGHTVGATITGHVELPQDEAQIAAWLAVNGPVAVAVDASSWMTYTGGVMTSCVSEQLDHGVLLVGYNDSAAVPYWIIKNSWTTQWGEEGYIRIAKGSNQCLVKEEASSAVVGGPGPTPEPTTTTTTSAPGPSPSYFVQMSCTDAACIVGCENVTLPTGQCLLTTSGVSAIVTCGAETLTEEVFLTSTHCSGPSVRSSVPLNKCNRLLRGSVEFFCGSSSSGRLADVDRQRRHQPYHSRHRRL
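Steps: dispense cruzain (1.5 nM final) in acetate buffer pH 5.5 with DTT and 0.01% Triton X-100; pin-transfer compounds; incubate 15 min RT; add Z-FR-AMC (2 uM final); read fluorescence every 30 s, using the 60 s intensity change.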
MARV entry inh – inhibitors of Marburg virus binding or cell entry | actives 1.8% (n = 300,000) | Potency, µM (doses to about 37.8 µM), for inactives: at the highest dose activity change, negative = inhibition, usual class: inhibitors | AID 540276 | Marburg virus pseudotyped entry inhibition, cell reporter; control for the full effect not named in the record; about a third of the inactives were read at about 46 µM; active = well fitted inhibition curve with a large enough effect; inconclusive = small, poorly fitted or top-dose-only effect, or effect the other way; inactive = flat fitted curve, though single readings scatter; tested in HEK293 cells; about a fifth of its hits are not listed in these tables; further: on the % scale 0 is the no-effect control and ±100 the full control effect; luciferase read-out
Cruzain inh noDet – blocks cruzain activity in detergent-free assay. Potency, µM, for inactives: max response, negative = inhibition, most hits filed as inhibitors. P25779. purified cruzain, Z-FR-AMC fluorescence, no detergent. actives 2.3% (n = 200,000);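 further: plate controls were enzyme without inhibitor for no effect and buffer without enzyme for full effect; nearly all actives have a fitted effect of over 40% in size; top concentration of the series not given in the record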
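Purified cruzain at 1.5 nM, pre-incubated 15 min with compound at room temperature in 100 mM sodium acetate pH 5.5, 5 mM DTT, 0.00005% Triton X-100. Reaction started with 2 uM Z-FR-AMC; AMC fluorescence increase over 60 s gives rate.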
2A StopGo – FMDV 2A StopGo reporter, luciferase signal; human cells with a luciferase reporter of 2A StopGo recoding; control for the full effect not named in the record; Potency, µM (titrated, usually from 57.9 µM), without a hit: at the top dose signal change, negative = less light; actives 1.2% (n = 410,000); AID 1159524; active = well fitted falling curve with a large enough effect; inconclusive = small, poorly fitted or top-dose-only effect; inactive = no such curve, though single readings can be large or run the other way; tested in HEK293T cells; further: on the % scale 0 is the no-effect control and ±100 the full control effect; nearly all actives have a fitted effect of over 45% in size; luciferase light after 4 h
SARS PLP yeast – inhibitors of SARS-CoV papain-like protease in yeast; S. cerevisiae expressing SARS-CoV PLpro, growth rescue; control for the full effect not named in the record; Potency, µM (titrated, usually from 32.9 µM), without a hit: top-dose activity, positive = growth rescue; actives 0.19% (n = 330,000); AID 485353; active means well fitted rising curve with a large enough effect; inconclusive means small, poorly fitted or top-dose-only effect; inactive means no such curve, though single readings can be large or run the other way; further: 0% is about no effect; nearly all actives have a fitted effect of over 55% in size; growth read by luminescence after 48 h
LASV entry inh – inhibitors of Lassa virus binding or cell entry | Lassa virus pseudotype entry inhibition, cell reporter; control for the full effect not named in the record | Potency, µM (series often up to 37.9 µM), without a hit: at the top dose activity change, negative = inhibition, hits mostly inhibitors | actives 1.2% (n = 300,000); active means well fitted inhibition curve with a large enough effect; inconclusive means small, poorly fitted or top-dose-only effect, or effect the other way; inactive means flat fitted curve, though single readings scatter; tested in HEK293 cells; further: on the % scale 0 is the no-effect control and ±100 the full control effect; nearly all actives have a fitted effect of over 50% in size; luciferase read-out
NS1 inh – blocks influenza NS1 protein function. S. cerevisiae slowed by influenza A NS1, growth recovery by OD600. actives 0.4% (n = 270,000). AID 2326. Potency, µM (series often up to 46.1 µM), for the others: at the top dose activity, positive = more growth; active means well fitted rising curve with a large enough effect; inconclusive means small, poorly fitted or top-dose-only effect; inactive means no such curve, though single readings can be large or run the other way; further: nearly all actives have a fitted effect of over 50% in size
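OD600 was taken as the measure of yeast growth restored by compound in an NS1-expressing S. cerevisiae strain. Cells had been washed out of glucose medium and diluted 1:100 into galactose -URA medium, pH 6.0.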
The depositor's hits bear a star; ? = inconclusive; / = not tested or not shown; & = joins results of further samples; [ ] = dose if it differs, or a comment. Unless noted, the call rests on the fitted dose curve; in most records, active means well fitted curve in the direction sought with a large enough effect; inconclusive means small, poorly fitted or top-dose-only effect, or another doubt; inactive means no such curve, though single readings can be large; an effect the other way counts as inactive or inconclusive. Potency means the concentration at half of the fitted maximal effect.

SMILES | RE007 growth inh | Cruzain inh Det | MARV entry inh | Cruzain inh noDet | 2A StopGo | SARS PLP yeast | LASV entry inh | NS1 inh
COc1ccc(C(=O)Nc2ccc(N3CCN(C(=O)C(C)C)CC3)cc2)cc1[N+](=O)[O-] | 19.6% | 0.4% | ? | 5.6% | ? | -16.6% | 0.4% | 3.7%
Cc1ccc(Cn2ccc(NC(=O)c3noc4c3CCCCC4)n2)cc1 | 30.2% | -2.6% | ? | 7.1% | -10.0% | 0.9% | -0.3% | -6.2%
O=C(OCC(=O)C12CC3CC(CC(C3)C1)C2)c1cccnc1 | 34.6% | / | ? | / | 1.8% | 0.3% | 1.8% | /
CC1(C)CC(=O)c2sc(NS(=O)(=O)c3cc(Cl)ccc3Cl)nc2C1 | 1.1% | / | -2.1%[46.1 µM] | / | 5.9% | 1.8% | / | 14.4%
C=CCc1ccccc1OCC(O)CN1CCN(CCN2C(=O)c3cccc4cccc(c34)C2=O)CC1 (stereo not given) | 10.3% | ? | 11.2µM* | -11.6% | 28.2µM* | -18.9% | ? | -27.2%
CCCCC(=O)Nc1ccc(C(=O)NCc2ccncc2)cc1 | 21.0% | 2.9% | -1.9% | -4.2% | 38.1%[activator] | -0.7% | 0.2% | -9.6%
COCCOC1CCN(C(=O)C2CCC(=O)N(Cc3cccc(F)c3)C2)CC1 (stereo not given) | 9.2% | / | 9.6%[46.1 µM] | / | -1.9% | 2.6% | 0.8%[46.1 µM] | 23.4%
CCC(=O)Nc1nc(C)cc(SCC(=O)OC)n1 | -3.6% | 4.5% | -4.6%[46.1 µM] | -5.5% | -6.7% | 2.0% | 11.3% | 0.2%
COc1ccccc1N1CCN(c2csc3ccc(Cl)cc3c2=O)CC1 | / | -6.2% | / | -5.2% | 12.7% | / | -0.5%[46.1 µM] | /
O=C(CCn1cccn1)Nc1ccc2c(c1)OCO2 | -4.7% | / | / | / | 34.9%[activator] | 5.4% | / | -1.9%
COc1ccccc1CNC(=O)CCc1c(C)nn(-c2ccc(N3CCOCC3)nn2)c1C | / | -0.8% | / | -2.2% | -7.5% | / | -1.6%[46.1 µM] | /
CCc1ccc(CNC(=O)C2COc3ccc(OC)cc3C2)cc1 (stereo not given) | / | -0.4% | / | 0.0% | -3.6% | / | -22.9%[46.1 µM] | /
CCOC(=O)Cn1c(C2CC(=O)N(c3ccc(C)cc3)C2)nc2ccccc21 (stereo not given) | / | -6.7% | -8.1%[46.1 µM] | 10.6% | -14.7% | / | -20.9%[46.1 µM] | /
CN(c1ncnc2onc(-c3cccc(Cl)c3)c12)C1CCCCC1 | / | -4.6% | -1.2%[46.1 µM] | -1.9% | -29.5% | / | 0.4%[46.1 µM] | /
Cc1ccccc1CN1CCN(C(=O)c2cccc3ccccc23)CC1 | 23.2% | / | / | / | -6.8% | 2.0% | / | -31.4%
CCOC(=O)N1CCN(C(=O)c2nn(-c3ccc(C)cc3)c(=O)c3c2c2ccccc2n3C)CC1 | 0.5% | 0.5% | ? | ? | -12.6% | 0.1% | ? | 0.8%
COc1ccccc1N1C(=NC(=O)COc2ccccc2)SC2CS(=O)(=O)CC21 (stereo not given) | 6.0% | / | / | / | -22.8% | -4.2% | / | 4.6%
Cc1cccc(N2CCN(S(=O)(=O)c3ccc4c(c3)CCCN4C(=O)C3CCC3)CC2C)c1 (stereo not given) | -0.4% | -1.5% | ? | 3.1% | -16.1%&-9.2% | 0.8% | ? | 8.5%
CCCS(=O)(=O)N1CCCC(C(=O)NCCN2CCCCC2C)C1 (stereo not given) | -0.1% | -1.0% | 20.7% | 4.2% | -8.7% | -20.9% | -1.9% | 8.2%
CCOc1ccc(CCNC(=O)COC(=O)c2cccc(S(=O)(=O)N3CCCC3)c2)cc1OCC | -15.2% | / | -12.3% | / | -11.9% | 4.0% | -0.4% | /
CC(NC(=O)Cc1ccc(F)cc1)c1ccc(F)cc1 (stereo not given) | 10.3% | 2.1% | 5.9% | -8.1% | -11.0% | 4.6% | -0.9% | 8.8%
CC1CC(NC(=O)c2cnc3n(c2=O)CCS3)CC(C)(C)C1 (stereo not given) | 0.5% | / | / | / | -2.7% | 1.0% | / | 2.5%
Cc1ccc(NC(=O)CN2CCN(Cc3ccccc3)CC2)cc1 | -6.7% | / | / | / | -20.8% | 0.5% | / | 0.1%
NC(=O)[C@H]1CC2(CC(c3cccc(NC(=O)COc4ccc(Cl)cc4)c3)=NO2)CN1C(=O)c1ccc(Cl)cc1 (stereo not given in full) | -5.7% | / | / | / | -28.4% | 3.3% | / | -33.4%
Cc1nc(N2CCOCC2)c2c(C(=O)N(C)Cc3ccccc3)c(C)oc2n1 | / | -0.2% | / | -5.1% | -9.1% | / | 8.3%[46.1 µM] | /
COC(=O)c1ccccc1NC(=O)CCc1c(C)nc2c(c(C)nn2-c2ccccc2)c1C | / | -0.7% | 11.8%[46.1 µM] | 7.1% | -19.9% | / | 4.7%[46.1 µM] | /
NS(=O)(=O)c1cccnc1Nc1cccc(C(F)(F)F)c1 | 32.5% | -2.0% | -4.2% | -4.1% | -18.0% | / | ? | -5.0%
COc1ccc(OCCSc2n[nH]c(N)n2)cc1 | 9.8% | 8.0% | 0.5%[46.1 µM] | -1.3% | 20.5% | -6.3% | 9.7% | -0.9%
CCOC(=O)CC(=O)CSC1=C(C#N)C(c2ccccc2OC)CC(=O)N1 (stereo not given) | -12.6% | -0.3% | 4.2% | -3.7% | -18.0% | 7.2% | -7.2% | 12.6%
CCn1c(C)nc2cc(C(=O)N3N=C(CCOC)CC3(O)C(F)(F)F)ccc21 (stereo not given) | 9.7% | / | / | / | 6.5% | 1.4% | / | -6.3%
COc1cc(OC)cc(C(=O)Nc2nc(CC(=O)NC(C)c3ccccc3)cs2)c1 (stereo not given) | 0.4% | / | ? | / | -27.2% | 2.2% | 9.3% | /
O=C(COc1ccc2ccccc2c1)N1CCN(c2ccccc2)CC1 | -24.5% | / | -15.0% | / | -13.9% | -1.3% | -23.4% | /
Cn1c(=O)c2c(nc(SCC(=O)Nc3ccc(F)cc3)n2Cc2ccccc2)n(C)c1=O | / | -1.2% | ? | 8.5% | 0.0% | / | -0.9%[46.1 µM] | /
CC1(C)CC(NC(=O)C23CCC(C)(C(=O)C2=O)C3(C)C)CC(C)(C)N1 (stereo not given) | 2.9% | / | / | / | 5.6% | 2.1% | / | 1.4%
O=C1c2ccccc2C(=O)N1CC1c2ccccc2CCN1S(=O)(=O)c1cnc[nH]1 (stereo not given) | 0.5% | -8.5% | -29.5% | 3.8% | 2.1% | 4.6% | ? | -10.0%
COc1ccc(CCN2C(=O)CC(Sc3ncccc3C(=O)O)C2=O)cc1OC (stereo not given) | -9.0% | 3.9% | 1.1% | -7.8% | -10.6% | -5.5% | 1.5% | -1.2%
COc1cc(NC(=O)c2cc(-c3ccc4c(c3)OCO4)on2)cc(OC)c1OC | 8.4% | -0.9% | ? | -9.5% | 2.1%&-22.1% | -7.1% | ? | 4.7%
Cc1c(Cl)cccc1N(Cc1ccc(C(=O)O)cc1)S(=O)(=O)c1ccccc1 | 11.6% | / | 1.5%[46.1 µM] | / | -22.9% | 0.2% | -7.2%[46.1 µM] | 4.5%
O=C(Nc1ccc2c(c1)OCCO2)c1ccncc1 | -6.4% | 1.6% | -0.8%[46.1 µM] | -5.5% | 33.3%[activator] | -3.2% | ? | -9.3%
CCOc1cc(C(=O)Nc2ccc(N3CCN(C(C)=O)CC3)cc2)cc(OCC)c1OCC | -2.0% | / | / | / | -15.1% | -1.7% | / | 14.0%
COCCNC(=O)C(OC(=O)C1=Cc2ccccc2OC1)C(C)C (stereo not given) | 9.1% | / | 6.3%[46.1 µM] | / | -4.1% | -1.0% | -3.0%[46.1 µM] | 1.1%
COc1ccc(OC)c(-c2csc(NC(=O)CSCc3c(C)noc3C)n2)c1 | 19.4% | / | ? | / | -19.1% | -4.2% | ? | /
CCc1nn2c(N3CCOCC3)cc(C)nc2c1-c1ccc(F)cc1 | -11.3% | 0.2% | 22.7% | 5.6% | ? | 0.3% | -6.3% | -4.6%
Cc1cccc2sc(N(Cc3cccnc3)C(=O)COc3ccccc3)nc12 | / | -5.2% | / | 12.3% | 5.7% | / | -5.1%[46.1 µM] | /
O=C(CN1CCN(Cc2ccccc2Cl)C1=O)N1CCCCCC1 | 17.8% | 1.9% | ? | 9.7% | -1.8% | 0.8% | -2.0% | 1.2%
CCOC(=O)C1CCCN(c2c(N3CCOCC3)c(=O)c2=O)C1 (stereo not given) | -0.2% | -1.0% | / | -4.9% | -11.9% | 1.9% | / | 8.1%

An excerpt of these results, with each value named:
> COc1ccc(OC)c(-c2csc(NC(=O)CSCc3c(C)noc3C)n2)c1
  RE007 growth inh: 19.4%; Cruzain inh Det: /; MARV entry inh: ?; Cruzain inh noDet: /; 2A StopGo: -19.1%; SARS PLP yeast: -4.2%; LASV entry inh: ?; NS1 inh: /

> CCc1nn2c(N3CCOCC3)cc(C)nc2c1-c1ccc(F)cc1
  RE007 growth inh: -11.3%; Cruzain inh Det: 0.2%; MARV entry inh: 22.7%; Cruzain inh noDet: 5.6%; 2A StopGo: ?; SARS PLP yeast: 0.3%; LASV entry inh: -6.3%; NS1 inh: -4.6%

> Cc1cccc2sc(N(Cc3cccnc3)C(=O)COc3ccccc3)nc12
  RE007 growth inh: /; Cruzain inh Det: -5.2%; MARV entry inh: /; Cruzain inh noDet: 12.3%; 2A StopGo: 5.7%; SARS PLP yeast: /; LASV entry inh: -5.1%[46.1 µM]; NS1 inh: /

> O=C(CN1CCN(Cc2ccccc2Cl)C1=O)N1CCCCCC1
  RE007 growth inh: 17.8%; Cruzain inh Det: 1.9%; MARV entry inh: ?; Cruzain inh noDet: 9.7%; 2A StopGo: -1.8%; SARS PLP yeast: 0.8%; LASV entry inh: -2.0%; NS1 inh: 1.2%

Bioassay records deposited in PubChem by National Center for Advancing Translational Sciences (NCATS).

Compounds were not picked by outcome; 4.7% or so of the library scored in one or more.
